Screening results deposited in PubChem BioAssay by several laboratories.
RanGTP-Impb inh: inhibitors of RanGTP-importin-beta interaction, primary screen, biochemical, FRET, CFP-Ran, YFP-importin-beta, homogeneous. Ran GTPase (GTP-bound) - importin-beta complex. cell-free CFP-Ran/YFP-importin-beta FRET ratio. inhibition, % (concentration not given with the values). 1.1% of 300,000 active;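 active = most replicates above 15%; inconclusive = exactly half above 15%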;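 also: 0% = DMSO wells and 100% = Ran loaded with GDP instead of GTP; wells of about 40 µL received 100 nL stock; the first replicate is given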
Ecoli rRNA inh: reduced GFP signal of wild-type E. coli, primary screen, bacterial rRNA inhibitor project, GFP/RFP fluorescence, OD600, single point | E. coli WT GFP vs humanized-ribosome RFP mutants, 24 h; stronger effect = lower value; DMSO median 0, no signal -100 | GFP signal change (wild-type ribosome), % (concentration not given with the values) | 1.6% of 350,000 active;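 active = significant combined selectivity score with lowered wild-type GFP, culture density cut under 30%, mutant RFP and density less affected; inactive = any of these conditions unmet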; also: one replicate is shown; some compounds called inactive have numbers as strong as hits
A1 inh: caspase 3/7 activation in MEF A1-2A-BIM cells, primary screen, A1 inhibitor project, cell-based, luminescence, HTS; Caspase-Glo 3/7 luminescence, 3 h; percent of clofoctol response, vehicle zero; 0.066% of 330,000 active; caspase activation, % (no concentration beside the values);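 active = over half of replicate activation scores above 10%, or exactly half above 10 with the replicate mean above 10; inconclusive = replicate mean below 10 yet half the replicates above 10; inactive = over half of replicates below 10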;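 also: wells of about 30 µL received 50 nL stock; many hits fall short of the cut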
T cruzi repl: inhibitors of intracellular T. cruzi growth, primary screen, luminescence, NIH3T3 host cells | T. cruzi beta-gal in NIH3T3, 90 h | inhibition, % (no concentration beside the values) | 1.4% of 300,000 active;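 active = mean inhibition across valid replicates above about 55%, limit read from the data; inconclusive = mean below that limit but half or more replicates reach it; inactive = mean below it, under half of replicates reach it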;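 also: signal also drops with host cell toxicity which is not excluded here; 0% = plate median of DMSO wells and 100% = zero luminescence signal; higher percent means less beta-gal luminescence so fewer parasites; stock transfer was 50 nL into about 50 µL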
AF4-AF9 inh: inhibitors of AF4 peptide binding to AF9, primary screen, biochemical, AlphaScreen, biotin-AF4 peptide, FLAG-AF9, single point; AID 651704, 2012; Protein AF-9 (Homo sapiens), P42568; inhibition, % at 10 µM; 0.47% of 350,000 active;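 active = every replicate reaching a set inhibition limit, whatever the replicate mean, cut at about 25% in these data; inconclusive = mean inhibition reaches that limit but some replicates miss it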;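 also: 0% = plate neutral control median and 100% = total signal loss; the record names both 10 and 1 µM as test concentration; the first replicate is given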
Target sequence (P42568 whole entry, looked up): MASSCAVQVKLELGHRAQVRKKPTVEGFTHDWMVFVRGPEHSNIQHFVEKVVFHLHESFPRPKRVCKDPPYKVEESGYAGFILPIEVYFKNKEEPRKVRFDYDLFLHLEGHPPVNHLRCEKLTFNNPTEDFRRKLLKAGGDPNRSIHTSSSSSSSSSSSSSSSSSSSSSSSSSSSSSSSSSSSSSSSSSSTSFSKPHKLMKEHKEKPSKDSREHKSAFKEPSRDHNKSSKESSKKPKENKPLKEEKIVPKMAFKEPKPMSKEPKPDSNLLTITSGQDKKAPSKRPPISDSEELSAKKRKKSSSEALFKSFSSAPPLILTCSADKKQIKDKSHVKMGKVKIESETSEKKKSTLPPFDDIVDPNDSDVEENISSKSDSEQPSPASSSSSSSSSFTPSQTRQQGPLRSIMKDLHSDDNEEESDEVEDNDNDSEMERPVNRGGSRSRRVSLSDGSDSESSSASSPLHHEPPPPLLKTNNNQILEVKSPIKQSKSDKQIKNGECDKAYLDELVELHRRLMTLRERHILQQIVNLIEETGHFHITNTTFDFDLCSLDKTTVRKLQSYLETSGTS
Calb FLC: C. albicans growth inhibition with fluconazole, primary screen, CaCi-2 strain, Alamar Blue fluorescence; 0.57% of 300,000 active; C. albicans CaCi-2 (fluconazole-resistant clinical isolate) + fluconazole, 48 h; growth inhibition, % (test concentration not listed);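 active = most replicates above 75%; inconclusive = exactly half above 75%; inactive = most below 75%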;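 also: all wells also contain fluconazole at 8 µg/ml as a sub-toxic cotreatment; 0% = median of DMSO wells and 100% = median of geldanamycin control wells; wells of about 8 µL received 7.5 nL stock; the first replicate is given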
Beta apoptosis: inhibitors of cytokine-induced beta cell apoptosis, primary screen, luminescence | INS-1E cytokine-induced death, ATP luminescence, 48 h; percent of positive-control rescue, neutral wells zero | protection from apoptosis, % (test concentration not listed) | 0.8% of 300,000 active;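 active = all replicates at 75% or more, or half of them and the mean; inconclusive = half reach 75% but not the mean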;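 also: 0% = cytokine-treated negative control wells and 100% = positive control rescue; higher means more ATP so stronger rescue from cytokine killing; wells of about 40 µL received 100 nL stock; the first replicate is given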
Vif TR-FRET: inhibitors of Vif binding to APOBEC3G peptide, primary screen, biochemical, TR-FRET, GST-Vif 1-94, biotin-A3G peptide, dose response retest (AID 1117319); Virion infectivity factor (Human immunodeficiency virus type 1 group M subtype B (isolate …; TR-FRET GST-Vif / biotin-A3G peptide binding; higher % means a stronger effect; test concentration not given here; strong numbers were not always called active; one-dose inhibition, %; IC50 in µM for titrated hits; 0.57% of 260,000 active;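 active = above the screen mean plus three standard deviations and confirmed in dose response; inconclusive = results disagree or hit not tested in dose response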;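 also: Vif residues 1-94 fused to GST binding biotinylated APOBEC3G peptide 110-148; 0% = full assay without inhibitor and 100% = GST in place of GST-Vif; retest series ran down from 100 µM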
Ecoli rRNA inh OD600: second read-out of Ecoli rRNA inh, no call of its own (marks repeat the call); OD600 change, %; measured here: OD600 growth;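 optical density of the mix in the first replicate; 0 = DMSO median and -100 = no signal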
Ecoli rRNA inh RFP: further read-out of Ecoli rRNA inh, marked with its call; RFP signal change, %; measured here: RFP humanized mutant strains;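 first replicate; 0 = DMSO median and -100 = no signal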
Active calls of the source: *; ? = inconclusive; nt = not tested or not shown. Not all compounds are listed, so the mix of outcomes need not match the whole.

SMILES	RanGTP-Impb inh	Ecoli rRNA inh	Ecoli rRNA inh OD600	Ecoli rRNA inh RFP	A1 inh	T cruzi repl	AF4-AF9 inh	Calb FLC	Beta apoptosis	Vif TR-FRET
O=C(CN1c2cccc3cccc(c23)S1(=O)=O)NC1CCCCC1	nt	10	12	0.2	2.0	nt	0.1	nt	3	nt
N/C(Cn1cncn1)=N\NC(=O)c1ccc(Cl)cc1Cl	-1.0	17	15	2.2	-0.2	-4	-1.5	0	0	4%
CCCn1c(=O)c(C(=O)NCCCc2ccccc2)c(O)c2ccccc21	-1.8	14	8	2.8	0.7	4	1.8	?	-2	nt
CC1CCCC(C)N1C(=O)CNCc1ccc2c(c1)OCO2 (stereo unspecified)	1.0	23	14	2.0	0.7	-11	-3.2	0	-3	3%
COc1cc2c(cc1OC)C(c1ccc(Br)cc1)NC(=O)C2 (stereo unspecified)	-1.1	1	-1	-5.5	0.9	-2	-2.4	27	1	nt
CCC(C(=O)NCc1ccco1)N(C(=O)CNS(=O)(=O)c1ccccc1)c1ccccc1C (stereo unspecified)	-2.5	-21	-39	-1.4	-0.5	9	1.0	-2	-2	3%
COc1cccc(CNS(=O)(=O)c2cc3c4c(c2)CCN4C(=O)CC3)c1	1.9	9	8	3.2	0.5	-27	1.0	18	-8	5%
CCOc1ccc(NC(=O)CCC(=O)NNS(=O)(=O)c2ccccc2[N+](=O)[O-])cc1	-5.2	5	1	0.0	-0.3	-28	-1.7	-13	-3	1%
CCOC(=O)C/C(=N\Nc1ncnc2ccccc12)c1ccccc1	23*	-2	-14	1.9	-0.5	-12	-3.1	2	1	nt
Cc1ccc(S(=O)(=O)N(C)CC(=O)OCC(=O)NC(=O)Nc2ccc3c(c2)OCCO3)cc1	7.1	nt	nt	nt	-1.4	0	nt	-2	0	2%
COC(=O)Cn1c(=NC(=O)c2ccc(S(=O)(=O)N3CCOCC3)cc2)sc2cc(S(N)(=O)=O)ccc21	2.0	5	3	1.0	0.3	-4	-0.1	1	3	nt
CC(C)CC(NC(=O)C1CCC(C)CC1)C(=O)N1CCN(c2ccccn2)CC1 (stereo unspecified)	1.9	-5	-18	-1.3	-0.6	-2	1.7	5	2	5%
CCC(=O)N1CCCc2cc(S(=O)(=O)N3CCN(c4ccccc4F)CC3)ccc21	1.3	-2	-14	4.4	1.1	1	5.6	2	40	0%
COc1cc(C(=O)Oc2cccc(/C=N/NC(=O)c3cccnc3)c2)cc(OC)c1OC	?	-7	-16	5.4	0.3	-13	3.7	-1	0	-10%
CC#CCN1c2ccccc2[C@]23C[C@@H](C(=O)OC)N(C(=O)NCCBr)C2=NC(C(=O)OC)=C(C(=O)OC)[C@H]13	-0.4	7	12	4.8	0.4	14	-5.1	13	6	nt
Cc1cc(C(=O)NCc2cccs2)no1	-1.4	nt	nt	nt	0.1	-9	nt	-3	-5	3%
O=C(Nc1ccc([N+](=O)[O-])cc1)Nn1cnnc1	-1.1	7	8	-0.9	0.7	-14	-5.4	31	5	nt
COc1ccc(OC)c(NC(=O)c2sc3nc(C)cc(C)c3c2N)c1	-1.1	3	5	-2.8	-0.2	50	0.8	-6	1	nt
COc1ccc(C2/C=C\CN(Cc3ccco3)CC(=O)N2Cc2ccc(F)cc2)cc1 (stereo unspecified)	-0.5	11	3	9.1	1.5	8	1.2	-11	-11	nt
O=c1[nH]c(=O)c2nnc(N/N=C\c3ccc(O)cc3)nc2[nH]1	nt	2	5	1.6	-0.5	-22	-1.7	nt	3	11%
CN(C)S(=O)(=O)c1ccc(=S)[nH]c1	0.5	9	-2	-3.9	-1.0	-4	-3.1	2	-3	-6%
CCOC(=O)c1[nH]c2c(c1-c1ccccc1)C(=O)CC(c1ccc(Cl)cc1)C2 (stereo unspecified)	-1.6	0	4	-1.7	-0.5	-8	-0.2	4	1	11%
CCOC(=O)C1=C(COC(=O)C2CC(=O)N(CCc3ccccc3)C2)NC(=O)NC1C (stereo unspecified)	nt	5	13	0.3	1.5	nt	2.4	nt	-2	nt
CC(C)(/C=N/O)/[N+]([O-])=C/C=[N+](\[O-])C(C)(C)/C=N/O	0.9	nt	nt	nt	-0.4	-16	nt	3	3	4%
Cc1ccc(C(=O)N2CCN(Cc3ccc4c(c3)OCO4)CC2)o1	-3.7	nt	nt	nt	1.0	-10	nt	-10	-4	-6%
O=C(NCC1CCCO1)C1CCCCN1S(=O)(=O)c1ccc(F)cc1 (stereo unspecified)	-1.7	nt	nt	nt	0.3	0	nt	-1	2	-7%
Cc1ccsc1/C=C/C1=Cc2c(sc(NC(=O)CSc3n[nH]c(N)n3)c2C#N)C(C)(C)C1	-61	nt	nt	nt	-0.5	16	nt	25	nt	?
CN(C(=O)C12CC3CC(CC(C3)C1)C2)C1(C)CCS(=O)(=O)C1 (stereo unspecified)	-0.3	nt	nt	nt	-0.4	1	nt	-1	-1	1%
COC(=O)CSc1ccccc1C(=O)OC	-0.3	8	3	-4.1	-0.6	-12	-69	-5	-5	-1%
COc1ccc(NS(=O)(=O)c2cccc(C(=O)NN=Cc3ccc(O)c(OC)c3)c2)cc1	nt	-6	-4	1.0	-1.0	nt	-1.2	nt	3	-6%
Cc1cc(NN)nc2ccc(Cl)cc12	1.2	0	-3	-2.5	-0.5	10	-6.4	6	6	21%
Cc1ccnc(NS(=O)(=O)c2ccc(NS(=O)(=O)c3cc(Cl)ccc3Cl)cc2)n1	4.0	1	-5	-0.5	0.8	-19	-2.2	13	-1	nt
O=C(Nc1nc(-c2nc3ccccc3s2)cs1)c1ccc(S(=O)(=O)N2CCOCC2)cc1	?	nt	nt	nt	-0.5	-20	nt	16	39	-15%
CCOC(=O)C1CCN(C(=O)c2cc3cc(F)ccc3[nH]2)CC1	4.7	-9	-4	-0.1	-1.6	-10	0.3	5	1	-5%
N#C/C(=C\c1ccc([N+](=O)[O-])o1)C(=O)Nc1ccc(F)cc1	6.0	28	19	26	1.6	23	-0.4	1	-1	7.6µM*
N#Cc1cc2cc3c(cc2nc1SCC(=O)N1CCOCC1)OCCO3	7.8	6	5	-1.5	-0.8	-6	9.8	24	15	nt
Cc1cc(Br)c2nc3c(c(C(=O)O)c2c1)CCCCC3	2.5	nt	nt	nt	0.2	-19	nt	0	9	nt
Cc1c(N=N/C(C(=O)Nc2ccccc2)=C(/O)c2ccccc2)c(=O)n(-c2ccccc2)n1C	-6.3	-3	-5	-1.0	0.0	2	?	34	nt	-2%
Cc1cc(SCc2cccc(C(F)(F)F)c2)nc(=O)[nH]1	5.5	nt	nt	nt	-0.6	-3	nt	-3	-1	3%
CCOC(=O)C1=C(COC(=O)CNC(=O)c2ccccc2F)NC(=O)NC1C (stereo unspecified)	4.5	6	10	0.4	0.7	-7	-2.5	5	3	5%
COc1ccc(-c2cc(CCCC(=O)NCCc3ccc(OC)cc3OC)no2)cc1	4.5	nt	nt	nt	2.2	15	nt	-17	-5	-3%
CCN(CC(=O)Nc1c(F)cccc1F)C(=O)/C=C/c1c(C)nn(-c2ccc(F)cc2)c1C	5.5	7	10	0.5	0.7	-12	3.7	-7	5	4%
CNC(=S)NNC(=O)c1cc(C(C)(C)C)nn1Cc1ccc(F)cc1	0.8	8	13	-0.5	0.9	6	-4.5	-5	-13	nt
Cc1ccc(-c2nnc(N(C)C(=O)c3ccccn3)s2)cn1	-0.4	nt	nt	nt	0.9	4	nt	3	2	0%
COC(=O)c1ccc(NC2=C(Cl)C(=O)OC2OC(=O)c2ccccc2)cc1 (stereo unspecified)	?	3	2	2.3	0.3	3	0.4	20	-7	1%
CC(C)(C)OC(=O)NCCCC[C@H](NC(=O)c1nc[nH]c1C(=O)NCc1ccccc1)C(=O)OC(C)(C)C	-1.1	5	-14	12	-0.2	25	-33	5	-3	1%
CC1(C)CCc2nc(SCc3ccccc3)c(C#N)cc2C1	-1.3	nt	nt	nt	0.2	0	nt	?	3	-10%
COc1cc(C(=O)Nc2ccc(S(=O)(=O)Nc3cc(C)on3)cc2)cc(OC)c1OC	-0.8	nt	nt	nt	1.2	-9	nt	-1	-5	15%
CN(Cc1ccccc1)S(=O)(=O)c1ccc2c(c1)OCCO2	-1.4	nt	nt	nt	1.4	5	nt	-4	2	25%
CCC(C)(C)NC(=O)c1cc(S(=O)(=O)N2CCc3ccccc32)cn1C	-8.3	-5	-1	0.2	0.3	15	-2.0	4	6	nt
Additional records:
SMILES	RanGTP-Impb inh	Ecoli rRNA inh	Ecoli rRNA inh OD600	Ecoli rRNA inh RFP	A1 inh	T cruzi repl	AF4-AF9 inh	Calb FLC	Beta apoptosis	Vif TR-FRET
COc1ccc2cnnc(SCC(=O)Nc3ccccc3)c2c1OC	-6.8	9	-3	8.4	0.7	18	-9.5	-15	-3	9%
C=CCn1c(=O)n(CCC#N)c(=O)n(CCC#N)c1=O	1.0	nt	nt	nt	0.3	-8	nt	1	-3	6%
O=C(NCC1CCNCC1)c1ccncc1	-3.2	nt	nt	nt	-0.2	-14	nt	-2	-7	12%
CCCCOCCCNC(=O)c1ccc(OC)cc1	-3.4	nt	nt	nt	1.1	6	nt	-27	1	4%
CC1=CC(C)(C)N(C(=O)CSc2nncn2C)c2ccccc21	-3.1	10	4	-1.7	0.3	3	6.2	-12	-10	0%
Cn1c(=O)oc2cc(S(=O)(=O)N3CCCc4ccccc43)ccc21	-0.6	1	10	-0.5	0.1	-11	-0.8	0	-6	6%
CCCCNC(=S)Nc1ccc(OC)nc1	-0.4	8	4	49	0.1	-15	-0.6	-3	-6	6%
Cc1sc2ncnc(SCC(=O)c3ccc4c(c3)OCCO4)c2c1-c1ccccc1	1.7	nt	nt	nt	-0.2	-12	nt	-1	1	nt
Nc1ccc(S(=O)(=O)Nc2nccc(/C=C/c3ccc(Br)s3)n2)cc1	1.8	-1	-4	1.8	-0.5	-6	-1.2	-4	nt	-5%
O=C(CCc1c[nH]c2ccccc12)NCC(=O)Nc1ccc(F)c(F)c1F	1.5	8	2	4.0	-0.3	-13	-0.4	7	-1	33%
Cc1ccc(C2C(C(N)=S)=C(N)OC3=C2C(=O)CC(C)(C)C3)cc1 (stereo unspecified)	-3.9	nt	nt	nt	0.1	-3	nt	0	-2	nt
CC(N=Cc1cc([N+](=O)[O-])ccc1O)c1ccccc1 (stereo unspecified)	5.4	5	-2	7.6	0.3	-4	-13	-8	3	?
